High-throughput results as filed in PubChem BioAssay.
CtBP-E1A blk: blocks the CtBP interaction with E1A | AlphaScreen GST-E1A/His-CtBP binding, 1536-well; stronger effect = lower value; control for the full effect not named in the record | activity change, % (no concentration beside the values) | 340,000 tested, 0.49% active; in the data active means activity change below about -65%; inconclusive means about -30% to -65%; inactive means above about -30%; also: % is scaled to controls: 0 for no effect and ±100 for the full control effect; compound concentration not given in the record
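Steps: dispense buffer (Tris pH 8.0, NaCl 300 mM, TCEP 1 mM, BSA, Tween 20); add 5X protein mix (GST-E1A, His-CtBP, 125 nM each); pin 23 nL compound; 2 h at 37 °C, dark; add 5X beads (50 ug/mL); 1 h; read.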
gsp agonist: agonists of gsp mutant (McCune-Albright syndrome). 340,000 tested, 0.13% active. gsp mutant cells, cAMP HTRF, 30 min; control for the full effect not named in the record. Potency, µM (top dose mostly 76.9 µM), without a hit: at the top dose activation (cAMP increase), hits mostly activators; active = well fitted activation curve with a large enough effect; inconclusive = small, poorly fitted or top-dose-only effect, or another doubt; inactive = no such curve, though single readings can be large or run the other way; cell line not stated here;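 also: phosphodiesterase inhibitor Ro 20-1724 added with compounds to block cAMP breakdown; potency is read from the fitted curve at half-maximal effect; nearly all actives have a fitted effect of over 60% in size; about a fifth of the inactives were tested at one dose only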
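Cells in DMEM/10% FBS with G418 were pretreated with compounds in DMSO plus […] (300 uM stock) for 30 min at 37C. cAMP was measured by HTRF (cAMP-d2 plus anti-cAMP antibody-K) after 30 min at room temperature.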
D2 agonist: activates the human D2 dopamine receptor | DiscoveRx PathHunter D2 beta-arrestin, luminescence, 90 min; 100% = 57 uM dopamine signal | AID 624465 | 360,000 tested, 0.084% active | activation, % (concentration not given with the values); in the data active = activation above about 40%; inconclusive = about 15% to 40%; inactive = below about 15%; also: compound concentration not given in the record; the text of the record calls up to 30% inactive
Target sequence (P14416 whole entry, looked up): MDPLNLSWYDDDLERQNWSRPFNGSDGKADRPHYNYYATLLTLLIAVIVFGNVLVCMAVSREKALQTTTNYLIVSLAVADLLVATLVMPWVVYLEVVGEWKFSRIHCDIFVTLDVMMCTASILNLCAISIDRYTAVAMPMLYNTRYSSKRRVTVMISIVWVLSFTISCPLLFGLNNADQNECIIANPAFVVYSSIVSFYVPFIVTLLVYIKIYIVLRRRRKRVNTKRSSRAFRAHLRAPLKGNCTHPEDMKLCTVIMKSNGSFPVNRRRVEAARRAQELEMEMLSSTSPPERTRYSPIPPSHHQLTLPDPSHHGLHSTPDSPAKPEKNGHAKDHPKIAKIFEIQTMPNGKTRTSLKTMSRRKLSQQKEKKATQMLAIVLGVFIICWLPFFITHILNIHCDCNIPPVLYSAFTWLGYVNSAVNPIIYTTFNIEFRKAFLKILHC
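Agonist mode: compounds alone added to overnight-plated D2 PathHunter cells for 90 min at 37 C, with 57 uM final dopamine (EC100) defining full response. Beta-arrestin recruitment detected by chemiluminescent reagent, read after 1 h at ambient temperature.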
D2 PAM: potentiates the human D2 dopamine receptor allosterically; P14416; DiscoveRx D2 beta-arrestin cells, luminescence, 90 min; 100% = 57 uM dopamine signal; potentiation, % (no concentration beside the values); 360,000 tested, 0.23% active; AID 624464; active = potentiation of 50% or more; inconclusive = 30% to 50%; inactive = 30% or less;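 also: compound concentration not given in the record; tested on top of an EC20 dose of dopamine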
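PathHunter D2 cells, attached overnight at 37 deg C, received compound in DMSO plus dopamine at EC20 (50 nM final) for 90 min at 37 deg C. Beta-arrestin recruitment was read as luminescence after 1 h with detection reagent at ambient temperature.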
gsp antagonist: gsp mutant antagonism; 340,000 tested, 0.4% active; AID 624288; Potency, µM (highest dose often 76.9 µM), for inactives: top-dose activity change, negative = inhibition, usual class: inhibitors; gsp-mutant cells, cAMP HTRF, 30 min; control for the full effect not named in the record; active = falling curve of any shape with a large fitted effect; inconclusive = falling curve, mostly with a smaller effect; inactive = flat or rising curve; cell line not stated here;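 also: intracellular cAMP measured with PDE inhibitor Ro 20-1724 present during compound exposure; potency is read from the fitted curve at half-maximal effect; % is scaled to controls: 0 for no effect and ±100 for the full control effect; nearly all actives have a fitted effect of over 65% in size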
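Measurement of cellular cAMP by homogeneous time-resolved fluorescence following a 30 min compound exposure at 37C. The PDE inhibitor […] was present throughout; the assay buffer was DPBS with 0.05% BSA and 0.005% Tween 20.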
Six1-Eya2 inh: inhibitors of human Six1/Eya2 interaction | Q15475+O00167 | AlphaScreen GST-Six1/His-Eya2 binding, biochemical; stronger effect = lower value; control for the full effect not named in the record | activity change, % (test concentration not listed) | 360,000 tested, 0.56% active; in the data active = activity change below about -65%; inconclusive = about -30% to -65%; inactive = above about -30%; also: % is scaled to controls: 0 for no effect and ±100 for the full control effect; compound concentration not given in the record
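Six1/Eya2 binding was read as AlphaScreen signal after compounds were pinned into GST-Six1 plus His-tagged Eya2 (5X stock 250/500 nM) in pH 8.0 Tris/NaCl/TCEP buffer, beads added, then incubated 1 h, 37 C, dark.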
* hit, by the source's call; ? = inconclusive; · = not tested or not shown; & = joins results of further samples; [ ] = another dose, or the depositor's remark.

SMILES	Six1-Eya2 inh	CtBP-E1A blk	gsp antagonist	D2 PAM	D2 agonist	gsp agonist
COc1ccc(S(=O)(=O)Nc2nc3ccccc3s2)cc1	0	1	?	5	-0.6	?
Cc1ccc2[nH]cc(CCNC(=O)/C=C/c3ccco3)c2c1	-9	-11	-11%	-10	-1.9	-17%
COCCNC(=S)N1CCC(NC(=O)Nc2ccc(C)cc2)CC1	4	·	6%	?	2.1	-124%[inhibitor]
CC(=O)Nc1ccc(S(=O)(=O)NCCC(=O)NC2CCCCCC2)cc1	10	-21	1%	15	1.5	2%
CCN(C(=O)COc1ccc(N(C)S(=O)(=O)c2ccc(NC(C)=O)cc2)cc1)C1CCCCC1	-8	-6	?	-5	0.4	-8%[15.4 µM]
O=C(Nc1ccc2ncccc2c1)c1cc(Cl)ccc1Cl	5	2	1%	3	-5.8	11%
CC(C)NC(=O)c1ccccc1NC(=O)CS(=O)(=O)Cc1ccccc1	0	0	-1%	0	-1.0	-8%
O=C(NN1CCCCCC1)c1ccccc1F	-1	9	7%	3	-0.8	?
CCOc1ccc(NC(=O)CC2C(=O)N(c3ccccc3)C(=S)N2Cc2ccccn2)cc1 (stereo not drawn)	3	23	-13%	2	-3.8	-25%
Cc1ccc(O)c(C(=O)c2cc(C(=O)NCCc3ccccc3)c(=O)n(CCc3ccccc3)c2)c1	1	2	-16%	13	5.6	?
O=C(Cc1cccc2c(=O)cc(-c3ccccc3)oc12)OCCN1CCOCC1	1	-3	·	1	5.1	·
O=C(COc1ccccc1[N+](=O)[O-])c1ccccc1	4	0	0%	-7	-1.2	6%[15.4 µM]
Cc1cc(S(=O)(=O)N2CCCC(N3CCOCC3)C2)c(C)cc1Cl (stereo not drawn)	-11	-9	11%	10	2.2	-20%[15.4 µM]
C/C(=C/c1ccccc1)C(=O)N1CC(C)OC(C)C1 (stereo not drawn)	-3	·	6%	-2	-4.4	-22%
O=C(COC(=O)c1ccc[nH]c1=O)NCCc1ccc(F)cc1	13	2	-4%	1	0.9	-5%[15.4 µM]
Cc1cc(=O)[nH]c2c1c(-c1ccccc1)nn2C	-8	7	18%	-2	0.3	3%[15.4 µM]
COc1ccccc1OCCCOc1c(C)cc(C)cc1Br	72	79	3%	-7	1.4	-2%
O=C(COC(=O)C1=Cc2ccccc2OC1)NCc1ccccc1	1	-21	7%	-9	0.1	-12%
Cc1ccn2cc(-c3cccc(NS(C)(=O)=O)c3)nc2c1	-6	-9	-6%	-5	2.7	4%
Cc1cnc(NC(=O)Cc2ccccc2Cl)s1	-6	-20	6%	0	-5.4	-39%[inhibitor]
Cc1ccccc1NC(=O)Cc1nc(COC(=O)c2ccc([N+](=O)[O-])cc2)cs1	-1	-4	13%	4	-0.4	-42%[inhibitor]
Cc1ccc(S(=O)(=O)N2CCSC2c2ccco2)cc1 (stereo not drawn)	0	-9	8%	-16	1.0	-29%
O=C(Nc1cnn(Cc2ccc(Cl)cc2)c1)C1CCCC1	-1	3	-7%	-8	-2.0	-17%
Cc1ccc(C)c(-n2cc(CN3CCCN(C=O)CC3)c(-c3ccccc3)n2)c1	2	·	9%	-10	-2.8	?
O=C(NC(=O)c1ccccc1)Nc1ccccc1	-14	-2	4%	-6	-1.6	21%[15.4 µM]
O=C(C1CCC1)N1CCN(c2ccc(Cl)cc2)CC1	-7	-2	4%	1	3.1	12%[15.4 µM]
CCOc1ccc2c(c1)sc(N)[n+]2Cc1cc(C)cc2cccnc12	-14	-3	26%	6	1.1	-6%
Cc1nc(N)nc(C)c1Cc1ccccc1	-2	1	-3%	2	-3.9	-37%[inhibitor]
Cc1nn(-c2ccc(Cl)cc2)c2sc(C(=O)c3c(N)n(C)c(=O)n(C)c3=O)cc12	4	8	8%	-9	-1.3	3%
Cc1ccc(C(=O)/C=C/C(=O)O)cc1	10	·	?	-8	2.3	0%
Cc1ccccc1NC(=S)NCc1ccc(Cl)cc1	-7	2	4%	-9	-0.4	0%
NC(=O)c1ccccc1NCC(=O)c1ccc(F)cc1	7	5	1%	-24	-17	-14%[15.4 µM]
O=C(N/N=C/c1ccc(OCC(=O)N2CCCCC2)cc1)c1ccccc1	-2	0	-6%	-6	0.3	-4%
C=C(C)Cn1c(-c2ccncc2)n[nH]c1=S	16	-15	·	-9	-2.8	-19%[15.4 µM]
CC(=O)Nc1cccc(N=NN2CCCCC2)c1	17	1	-3%	-4	-2.4	3%[15.4 µM]
Cc1c(Cl)cccc1NC(=O)CNC(=O)c1ccc2c(c1)OCCO2	3	·	7%	-6	-1.3	?
CC1=C(C(=O)N(C)C)CC(CC(=O)NC2CCCC2)C(=O)N1CCC1=CCCCC1 (stereo not drawn)	1	5	·	-1	-8.0	11%
CCN1CCN(C(=O)c2oc(=O)c3ccccc3c2-c2ccc(C)cc2)CC1	6	2	2%	-11	-3.9	-24%
CCOc1ccc(CCNC(=O)C2(c3ccccc3)CC2)cc1OCC	-3	4	10%	-7	-0.6	0%
CCOc1ccc(-c2c[n+](=O)c3c(n2[O-])CCCC3)c(OCC)c1	5	6	-1%	-2	-2.5	-75%[inhibitor]
COc1ccc(CC(=O)N2CCCC(C)C2)cc1 (stereo not drawn)	1	12	18%	-1	-4.1	-39%
Cc1cc(C)c(N=C2C(=O)Nc3ccccc32)c(C)c1	0	-23	-5%	-22	-13	?
O=c1ccc2cc(S(=O)(=O)N3CCN(c4ccc(Cl)cc4)CC3)ccc2o1	-2	0	6%	-6	-2.5	-1%[15.4 µM]
O=C(N/C(=C\c1ccc([N+](=O)[O-])cc1)C(=O)N1CCCCC1)c1ccccc1	1	0	1%	6	2.8	22%
COc1ccc(NC(=O)N(C)C[C@H]2OCCCC[C@H](C)Oc3ccc(NC(=O)Nc4ccc5c(c4)OCO5)cc3C(=O)N([C@@H](C)CO)C[C@@H]2C)cc1	-20	-13	·	3	-2.4	-110%[inhibitor]
O=C(N/C(=C\c1ccco1)C(=O)N1CCOCC1)c1ccccc1Cl	20	-1	-1%	2	-4.2	22%[15.4 µM]
CC(C(=O)Nc1ccc(N(C)C)cc1)N1C(=O)c2ccccc2S1(=O)=O (stereo not drawn)	-5	-1	-6%	-10	-4.9	-2%
Cc1ccc(N2CC(C(=O)OCc3ccccc3F)CC2=O)cc1 (stereo not drawn)	13	-5	-16%	3	-1.1	3%
Cc1ccc(S(=O)(=O)NCCc2nnc3ccc(N4CCOCC4)nn23)cc1	-8	5	·	-1	0.2	-92%[inhibitor]
O=C(NCCN1CCOCC1)/C(=C/c1ccco1)NC(=O)c1ccccc1	9	0	4%	-4	-9.4	-29%

Further compounds follow:
SMILES	Six1-Eya2 inh	CtBP-E1A blk	gsp antagonist	D2 PAM	D2 agonist	gsp agonist
CC1CCCCN1C(=O)c1ccc(S(=O)(=O)N2CCCCC2C)cc1 (stereo not drawn)	-1	9	-5%	-7	-1.3	18%
CCOC(=O)CC(NC(=O)c1cc2cc(Br)ccc2oc1=O)c1cccc([N+](=O)[O-])c1 (stereo not drawn)	-3	12	12%	2	-2.4	-8%[15.4 µM]
CC(C)C12CN3CC(C(C)C)(CN(C1)C3c1ccccc1)C2O (stereo not drawn)	-6	-9	9%	-4	-0.7	?
O=C(NCc1ccccc1)C1CCN(S(=O)(=O)c2cccc3cccnc23)CC1	-7	-4	-4%	-6	-7.8	-36%[inhibitor]
COC(=O)c1ccc(CSc2ncnc3sc(C)c(C)c23)o1	8	5	3%	-22	-4.6	-6%
CC1CCN(CCc2nc3cc(NC(=O)COc4ccccc4)ccc3n2C)CC1	2	3	3%	-31	-3.0	24%
O=C(O)c1cccc2c1Oc1ccccc1S2(=O)=O	1	6	2%	-27	-0.1	-1%[15.4 µM]
CCOC(=O)c1c(-c2ccc(OC)cc2)csc1/N=C/C1=C(O)CCCC1=O	-3	-1	-15%	-7	-9.4	-3%[15.4 µM]
CC(C)(C)OC(=O)COc1cc(F)ccc1[N+](=O)[O-]	1	5	8%	-4	0.0	·
Cc1ccnc(SCC(=O)c2cccc([N+](=O)[O-])c2)n1	2	-4	11%	9	3.1	?
CCN1C(=O)C(CC(=O)Nc2ccc(OC)cc2)N(CCc2ccccc2)C1=S (stereo not drawn)	7	3	-20%	-8	-1.8	22%[15.4 µM]
CN(CC(O)CN1CCOCC1)S(=O)(=O)O (stereo not drawn)	7&7	8&5	15%&8%	-5&-1	-1.9&-3.9	22%
COc1ccc2nc(C)cc(Nc3ccc(N4CCN(C)CC4)cc3)c2c1	-19	·	-19%	-20	-2.2	-2%
CCc1cc(=O)oc2cc(OC(=O)c3ccco3)ccc12	-4	5	6%	4	-6.6	17%
N#Cc1c(C(F)(F)F)cc(-c2ccco2)nc1SCc1ccccn1	16	3	-12%	-23	-2.7	-24%
O=c1c2ccccc2nc(COc2ccccc2)n1/N=C/c1ccc(O)c(O)c1	-5	·	?	-6	11	2%
Cc1cccc(Cn2c(NC3CCCC3)nc3c2c(=O)[nH]c(=O)n3C)c1	-21	-2	·	-11	-2.2	-35%
COc1cc(OC)cc(C(=O)N(CN2CCCC2=O)c2ccccc2OC)c1	11	-2	-1%	-8	-0.4	10%
CCN(CC)CCCNC(=O)CCn1nc(-c2ccc(Cl)cc2)ccc1=O	1	4	17%	-9	-0.9	13%[15.4 µM]
Cc1ccccc1C(=O)NCC(=O)OC(C)C(=O)Nc1cccc(S(=O)(=O)N2CCOCC2)c1 (stereo not drawn)	-4	0	-4%	-13	-3.4	13%[15.4 µM]
